Assay outcomes: PubChem, National Center for Advancing Translational Sciences (NCATS)
EPAC1 ag val: validation of human EPAC1 agonists; O95398; EPAC1 Rap1b BODIPY-GDP exchange, fluorescence; Potency, µM, for inactives: max response, positive = active, usual class: activators; 1% of 16,000 active; active means well fitted activation curve with a large enough effect; inconclusive means small, poorly fitted or top-dose-only effect; inactive means no such curve, though single readings can be large or run the other way;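 further: nearly all actives have a fitted effect of over 70% in size; series mostly up to about 76 or 150 µM; scaled to a cAMP control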
Target sequence (O95398 whole entry, looked up): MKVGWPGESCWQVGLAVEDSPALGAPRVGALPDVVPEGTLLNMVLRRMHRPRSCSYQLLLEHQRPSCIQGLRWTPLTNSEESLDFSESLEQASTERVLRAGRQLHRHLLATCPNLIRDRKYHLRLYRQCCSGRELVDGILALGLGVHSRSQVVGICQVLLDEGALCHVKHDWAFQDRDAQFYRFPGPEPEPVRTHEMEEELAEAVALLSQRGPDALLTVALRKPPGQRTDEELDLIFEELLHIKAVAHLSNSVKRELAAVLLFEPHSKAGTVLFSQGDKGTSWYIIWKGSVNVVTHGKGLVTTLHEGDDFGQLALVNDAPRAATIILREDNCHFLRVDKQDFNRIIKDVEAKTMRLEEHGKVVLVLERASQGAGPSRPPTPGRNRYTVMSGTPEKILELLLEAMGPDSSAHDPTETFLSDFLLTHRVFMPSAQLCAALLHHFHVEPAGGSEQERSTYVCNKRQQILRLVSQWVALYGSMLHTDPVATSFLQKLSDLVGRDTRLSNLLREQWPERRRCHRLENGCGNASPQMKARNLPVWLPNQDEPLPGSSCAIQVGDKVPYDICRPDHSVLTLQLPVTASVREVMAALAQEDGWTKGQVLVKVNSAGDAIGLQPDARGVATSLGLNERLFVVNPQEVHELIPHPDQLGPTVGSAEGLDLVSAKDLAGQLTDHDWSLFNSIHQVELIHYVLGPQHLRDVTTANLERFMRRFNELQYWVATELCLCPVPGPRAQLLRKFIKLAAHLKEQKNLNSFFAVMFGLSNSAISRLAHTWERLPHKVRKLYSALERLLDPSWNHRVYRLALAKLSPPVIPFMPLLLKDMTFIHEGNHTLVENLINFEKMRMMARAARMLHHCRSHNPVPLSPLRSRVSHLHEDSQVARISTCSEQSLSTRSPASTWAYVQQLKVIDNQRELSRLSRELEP
Numbers without * were called inactive; ? = inconclusive; & = joins results of further samples; [ ] = another dose, or the depositor's remark. On the % scale 0 is the no-effect control and ±100 the full control effect; potency means the concentration at half of the fitted maximal effect. These rows are one share of the data, so the mix of outcomes need not match the whole.

SMILES	EPAC1 ag val
CC(=O)N[C@@H]1C(O[C@H]2O[C@H](C(=O)O)C(O)[C@H](O)[C@H]2O)[C@H](O)[C@@H](CO)O[C@H]1O[C@@H]1C(C(=O)O)O[C@@H](O[C@H]2[C@H](O)[C@@H](CO)OC(O)[C@@H]2NC(C)=O)[C@H](O)[C@H]1O (stereo partly specified)	-5%
O=c1c(-c2cccs2)nc2cncnc2n1-c1ccccc1	-30%[inhibitor]
CCCCCCCCCCC1=C(C)C(=O)C(OC)=C(OC)C1=O	5%
O=C1CCC[C@@H]2C[C@@]3(C[C@@H]4CCN1[C@H]24)Nc1ccccc1NC3=NC1CCCCC1	7%
COc1ccccc1CN1CCC2(CC1)CCN(C(C)=O)CC2	9%
O=C(NCCc1ccccc1)[C@@H]1CC=C[C@@H]2CCN(Cc3ccccc3)C(=O)[C@@H]21	-6%
NC(=O)c1ccccc1	-3%
CC(C)Cc1ccc(CC(=O)O)cc1	-25%
O=S(=O)(/C=C/c1ccccc1)N1CCC(n2c(C3CCCO3)nc3cccnc32)CC1 (stereo unspecified)	8%
CCNc1ncc2nc(-c3cc(F)cc(F)c3)c(=O)n(CCOC)c2n1	-54%[inhibitor]
CCc1nc2cc(C(=O)N(C)CC3CCCN(C)C3)cc(NC(=O)c3ccccc3OC)c2n1C (stereo unspecified)	-9%
O=C(Cc1ccccc1)NO	6%
COc1ncc2nc(-c3ccc(Cl)cc3)c(=O)n(C)c2n1	?
O=C(c1csnn1)N1CCC2(CC1)CCN(c1cccc(-c3ccccc3)c1)CC2	13%
COc1ccc2[nH]cc(CCNc3ncncc3-c3ccccc3OC)c2c1	?
N#CCCn1c(=O)c(-c2ccccc2)nc2cnc(N3CCNCC3)nc21	-43%[inhibitor]
COCCn1c(=O)c(-c2ccccc2)nc2cnc(Nc3ccccc3)nc21	-14%
COCC(=O)N1CCC2(CC1)CCN(C(=O)Nc1ccc(OC)cc1)CC2	-68%[inhibitor]
COC(=O)[C@@H](N)CSC/C=C(\C)CC/C=C(\C)CCC=C(C)C	-18%
COc1cc(CN2C(=O)CC[C@@H]3CN(Cc4ccccn4)CC[C@@H]32)cc(OC)c1OC	3%
CN1CCN(CCCN2c3ccccc3Sc3ccccc32)CC1	9%
CN1CCN(CCC=C2c3ccccc3Sc3ccc(S(=O)(=O)N(C)C)cc32)CC1	?
Cc1oc(-c2ccccc2NC(=O)C2CCC2)nc1CNC(=O)c1c(F)ccc(F)c1F	-1%
CN(C)c1ccc(/C=C2/C(=O)Nc3ccccc32)cc1	16%
COc1cc(OC)c(C(C)=O)c(O)c1C	-17%
O/N=C(/C[n+]1ccsc1)c1ccc(I)cc1	26%
Cc1cccc(CNc2ncncc2-c2ccc(C(=O)N(C)C)cc2)c1	13%
CC1C(=O)CCC2[C@]1(C)CCC1[C@]2(C)CC[C@@]2(C)C3CC(C)(C)CC[C@]3(C)CC[C@@]12C (stereo partly specified)	-5%
COc1ccc(/C=C/c2ccccn2)cc1	28%
CC(=O)OCC(=O)[C@@]1(O)[C@H](C)C[C@H]2[C@@H]3CCC4=CC(=O)C=C[C@]4(C)[C@@]3(F)[C@@H](O)C[C@@]21C	9%&-8%
COc1ccc(-c2ccc(C(=O)N(C)Cc3csc(C)n3)c(N3CCC(N4CCc5ccccc5C4)CC3)n2)cc1	7%
CCc1c(C)c2ccccc2[nH]c1=O	8%
O=C1CCN(Cc2ccc(-c3ccccc3)cc2)CCN1Cc1ccccn1	19%
N#CCCn1c(=O)c(-c2cccs2)nc2cnc(N3CCOCC3)nc21	63µM*
O=C(O)CCCc1ccccc1	-1%
C=C(CO)C1Cc2c(ccc3c(=O)c4c(oc23)COc2cc(OC)c(OC)cc2-4)O1 (stereo unspecified)	-15%
CC(C)N(CCC(=O)c1ccc2ccccc2c1)Cc1ccccc1	4%&2%
N#CCCn1c(=O)c(CCc2ccccc2)nc2cnc(Nc3ccccc3)nc21	-33%[inhibitor]
Cc1cccc(CNc2cc(-c3ccc(C(=O)N(C)C)cc3)ncn2)c1	-36%
COc1cc(CCNC(C)=O)c(C(=O)/C=C/c2cccc(OC)c2OC)cc1OC	-61%[inhibitor]
COc1ccccc1CNc1ncnc2ccc(-c3ccccc3OC)cc12	?
Cc1cccc(C)c1NC(=O)CC12CCCN1CCC2	0%
Cc1cc(C(=O)NCC2CCC3(CCN(Cc4cc(F)ccc4F)CC3)O2)n(C)n1 (stereo unspecified)	0%
CCCC[C@H]1COCCS(=O)(=O)N1Cc1cccc(F)c1	-55%[inhibitor]
CN1CCN(c2ncnc3ccc(-c4ccccc4Cl)cc23)CC1	-49%[inhibitor]
CC1(C)C2CC[C@@]1(C)C(=O)C2	?
NCCC[C@H](N)CC(=O)N[C@H]1CNC(=O)[C@H]([C@H]2C[C@H](O)NC(N)=N2)NC(=O)/C(=C/NC(N)=O)NC(=O)[C@H](CO)NC(=O)[C@H](CO)NC1=O	-10%
NCCCCNS(=O)(=O)c1ccc2c(Cl)cccc2c1	-3%
CN(C)c1ncc2nc(-c3ccc(F)cc3)c(=O)n(C[C@H]3CCCO3)c2n1	-35%[inhibitor]
Cc1ccc(CNc2nc(CN3CCSCC3)nc3ccccc23)o1	9%
NCCCC(N)CC(=O)NCC1NC(=O)C(CO)NC(=O)C(N)CNC(=O)C(C2CCN=C(N)N2)NC(=O)/C(=C\NC(N)=O)NC1=O (stereo unspecified)	?
C[C@]12CC[C@@H]3c4ccc(OC(=O)c5ccccc5)cc4CC[C@H]3[C@@H]1CC[C@@H]2O	5%
CN(C)CCCN1c2ccccc2Sc2ccc(Cl)cc21	1%&-13%&0%
COCC(=O)N1CCC[C@@]2(CCN(Cc3nccs3)C2)C1	-36%[inhibitor]
COc1ccc(NC(=O)N2CC3(CCN(C(=O)c4csnn4)CC3)C2)cc1	-4%
c1cc2c3c(c1)CCC[N+]3(C1CCCCC1)CCC2	?
Cc1ccc2[nH]c(C(=O)N3CCc4c(cnc(C)c4CNC(=O)c4ccccc4F)C3)cc2c1	-3%
C=C1C2CC[C@@]3(C)C(c4ccoc4)OC(=O)C[C@@]13OC1CC(OC(C)=O)C(C)(C)C(CC(=O)OC)[C@@]12C (stereo partly specified)	-29%
Cc1nc2n(c(=O)c1CCN1CCC(c3noc4cc(F)ccc34)CC1)CCC[C@H]2O	-18%
Nc1nc(Nc2ccccc2)nc2c1ncn2[C@@H]1O[C@@H](CO)[C@H](O)[C@H]1O	-17%
Carrying on:
SMILES	EPAC1 ag val
COc1c(C=O)c(=O)[nH]c2c(OC)cccc12	1%
Cc1cnc(CNc2nc(-c3cccnc3)nc3ccccc23)cn1	?
CN(C)c1ccc(/C=[N+]2\C(=O)CC(=O)NC2=O)cc1	?
CCNc1ncc2nc(-c3cc(F)cc(F)c3)c(=O)n(-c3ccc(OC)cc3)c2n1	-12%
COC(=O)[C@@H]1C[C@H](NC(=O)c2ccccc2C(F)(F)F)CN1Cc1cccc(O)c1	-10%
O=C(c1ccc(F)c(F)c1)N1CCOc2ccc(CN3CCN(CCO)CC3)cc2C1	5%
CC(C)(C)c1cc(/C=C(\C#N)C(N)=S)cc(C(C)(C)C)c1O	3%&-12%&5%
Cn1cccc1C(=O)N1CCC2(CCCN(c3ccncc3)C2)CC1	-18%
CC[C@H](NC(=O)c1c(C)c(-c2ccccc2)nc2ccccc12)c1ccccc1	3%&18%
COc1cc(N)c(Cl)cc1C(=O)NC1CCN(Cc2ccccc2)CC1	8%&-23%
COc1ncc2nc(C)c(=O)n(C3CC3)c2n1	-22%
CN(C)c1ncc2nc(-c3cccs3)c(=O)n(C[C@H]3CCCO3)c2n1	112µM*
O=c1[nH]c2cc(C(F)(F)F)ccc2n1-c1cc(C(F)(F)F)ccc1O	-14%&-39%
CCCCc1c(C)[nH]c2c(OC)cccc2c1=S	-21%
Cc1ccccc1CN1Cc2cccc3c2[C@H](C=CC3)CC1=O	8%
CC1=C(C(=O)OCc2ccccc2)N2C(=O)[C@@H](NC(=O)COc3ccccc3)[C@H]2SC1	-15%
CCNc1ncc2ncc(=O)n(Cc3ccc(F)cc3)c2n1	-26%
Cc1ccccc1-c1cncnc1NC1CCNCC1	?
CN(C)C(=O)c1ccc(-c2cc(NCc3cccnc3)ncn2)cc1	-52%[inhibitor]
N#CCCn1c(=O)cnc2cnc(N3CCOCC3)nc21	-52%[inhibitor]
CN1C(C(=O)Nc2ccccn2)C(=O)c2sc(Cl)cc2S1(=O)=O (stereo unspecified)	1%
CN(C)Cc1ccccc1-c1nccc(NCc2cccs2)n1	4%
CN(C)Cc1ccccc1-c1ccc2ncnc(NC3CC3)c2c1	?
O=c1cc(-c2cccc(O)c2)oc2cc(O)ccc12	2%
CCCCCCCCCCCCCCCCCCOC[C@H](COP(=O)([O-])OCC[N+](C)(C)C)OC(C)=O	1%
O=C(/C=C/c1ccccc1)c1ccc(O)cc1O	-29%
COc1ccc(-n2c(CCNC(=O)c3ccc(-c4cccc(F)c4)cc3)nnc2SC)cc1	20%
COc1ccc(-n2c(CNC(=O)c3cc(C(F)(F)F)ccc3Cl)nnc2SC)cc1	16%
COCC(=O)N1CCC2(CCN(Cc3ccccc3)CC2)CC1	-49%[inhibitor]
O=C(O)CCCCC(=O)O	?
CSc1ncccc1C(=O)N1CCOc2ccc(C(C)(O)CCn3cccn3)cc2C1 (stereo unspecified)	0%
COC(=O)c1cc(CNC(=O)c2cccc(C)c2)cc(NC(=O)c2ccncc2)c1	4%
Nc1c(CC(=O)O)cccc1C(=O)c1ccccc1	11%&-8%
CCCCCCCCCCCCCCCC(=O)OC[C@H](COP(=O)([O-])OCC[N+](C)(C)C)OC(=O)CCCCCCCCCCCCCCC	-6%
COc1ccc2c(c1)C[C@]1(C)c3ccccc3C(=O)N(Cc3ccccc3)[C@H]21	?
COc1cccc(-c2cncnc2NCc2ccccc2)c1	-83%[inhibitor]
CC(C)CN1CC2(CCN(C(=O)c3csnn3)CC2)C1	24%
O=C(OC1Cc2c(O)cc(O)cc2OC1c1cc(O)c(O)c(O)c1)c1cc(O)c(O)c(O)c1 (stereo unspecified)	16%
C[C@@H](CSc1ccccc1)CN1CC[C@H](NC(=O)OCc2ccccc2)CCC1=O	5%
N#CCCn1c(=O)c(-c2cc(F)cc(F)c2)nc2cnc(Nc3ccccc3)nc21	9%
O=S1(=O)[C@H]2C[C@@H]3C=C[C@@]2(CN1Cc1cccc(C(F)(F)F)c1)O3	-31%[inhibitor]
CC(C)c1c(C(=O)N2CCCCC2c2cccnc2)cnn1-c1nccc(-c2cccs2)n1 (stereo unspecified)	-5%
COc1ccc2c(c1OC)C(=O)N1c3ccccc3C(=O)OC21 (stereo unspecified)	1%
Cc1cc2c(c(-c3cnccn3)c1)OC(CNC(=O)C1CCCN(C)C1)C2 (stereo unspecified)	-13%
O=C(c1ccco1)N1CCC2(CCCN(c3ccccc3)C2)CC1	-31%[inhibitor]
O=C(Cc1ccc2c(c1)OCO2)N1CCOc2ccc(CN3CCOCC3)cc2C1	-7%
c1cncc(CNc2cc(-c3ccoc3)ncn2)c1	?
NC(=Nc1ccccc1)NC(=O)c1nc(Cl)c(N)nc1N	0%&-12%&-11%
COc1ccccc1CN1CCC2(CCNCC2)CC1	28%
O=C(O)c1cccc(/C=C2/C[C@@H]3[C@@H](/C=C/[C@@H](O)C4CCCCC4)[C@H](O)C[C@@H]3O2)c1	4%
COc1ccc(CNC(=O)C[C@H]2C(=O)N(Cc3ccccc3)C[C@@H]2Cc2ccccc2)cc1	5%
CC(C)NC(=O)N1CC[C@@]2(CCCN(S(=O)(=O)c3ccccc3)C2)C1	1%
Cc1cnc(CNc2cc(-c3ccc(C(=O)N(C)C)cc3)ncn2)cn1	10%
COC(=O)C1OC(=O)C2OC23[C@]2(C)C(O)CC4C(C)(C)C(OC(C)=O)CC(OC(C)=O)[C@@]4(C)C2CC[C@@]13C (stereo partly specified)	-8%&-6%
COc1ccc(-c2nc3cnc(N4CCNCC4)nc3n(C)c2=O)cc1	?
Cc1cnc(SCC2CCCO2)nc1C1CCCN(C(=O)c2ccc(S(N)(=O)=O)cc2)C1 (stereo unspecified)	-13%
CCNc1ncc2nc(-c3ccccc3)c(=O)n(CCc3ccccc3)c2n1	19%
COc1cccc(Nc2ncc3ncc(=O)n(CCc4ccccc4)c3n2)c1	-45%[inhibitor]
Cc1ccc2c(Br)cc(Br)c(O)c2n1	-6%
Cc1cccc(C)c1NC(=O)C[N+](C)(C)C	-17%
(listing goes on)
SMILES	EPAC1 ag val
CC1(C)C(=O)C=C[C@@]2(C)C1C=C[C@@]1(C)C2CC[C@@]2(C)C(c3ccoc3)OC(=O)C3OC312 (stereo partly specified)	?
COCC(=O)N1CCC2(CC1)CN(c1cccc(-c3ccccc3)c1)C2	-60%[inhibitor]
CN(CCCN1c2ccccc2CCc2ccccc21)CC(=O)c1ccc(Cl)cc1	3%
C=CS(=O)(=O)N(Cc1ccccc1)[C@H](CO)CC(C)C	-51%[inhibitor]
